# Screens from PubChem.
# D2 PAM – positive allosteric modulators of human D2 dopamine receptor. DiscoveRx D2 beta-arrestin cells, luminescence, 90 min; 100% = 57 uM dopamine signal. P14416. actives 0.23% (n = 360,000). potentiation, % (concentration not given with the values); active = potentiation of 50% or more; inconclusive = 30% to 50%; inactive = 30% or less;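 also: compound concentration not given in the record; tested on top of an EC20 dose of dopamine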
# Target sequence (P14416 whole entry, looked up): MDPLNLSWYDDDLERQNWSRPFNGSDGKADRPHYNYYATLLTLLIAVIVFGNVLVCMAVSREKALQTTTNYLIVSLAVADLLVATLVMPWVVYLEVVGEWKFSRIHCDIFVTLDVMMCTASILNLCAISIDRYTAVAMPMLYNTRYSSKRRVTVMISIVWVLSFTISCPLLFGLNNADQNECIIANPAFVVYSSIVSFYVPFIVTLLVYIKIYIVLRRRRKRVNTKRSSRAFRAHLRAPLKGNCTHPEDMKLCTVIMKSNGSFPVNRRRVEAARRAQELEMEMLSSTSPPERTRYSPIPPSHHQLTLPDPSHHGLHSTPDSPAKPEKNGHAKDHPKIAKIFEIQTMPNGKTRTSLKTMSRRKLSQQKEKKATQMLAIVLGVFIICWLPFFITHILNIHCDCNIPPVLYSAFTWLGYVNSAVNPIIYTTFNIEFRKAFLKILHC
#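 PathHunter beta-arrestin assay in DiscoveRx D2 cells. Compounds were added with an EC20 of dopamine (50 nM final) for 90 min at 37 deg C. Luminescence was read 1 h after detection reagent, with 57 uM dopamine as the EC100 control.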
# Sfp inh – inhibitors of Bacillus subtilis Sfp phosphopantetheinyl transferase; Q9F4F7; Biochemical Sfp PPTase activity, qHTS; Potency, µM, inactives show max response, negative = inhibition, usual class: inhibitors; actives 3.5% (n = 310,000); AID 1490; active = well fitted inhibition curve with a large enough effect; inconclusive = small, poorly fitted or top-dose-only effect, or another doubt; inactive = no such curve, though single readings can be large or run the other way;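 also: the enzyme is Sfp with the accession as filed and its product quenches rhodamine fluorescence; potency is read from the fitted curve at half-maximal effect; 0% = enzyme reaction without inhibitor and -100% = no enzyme wells; top concentration of the series not given in the record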
#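 Step 1, compound plus 15 nM Sfp-PPTase, 15 min, room temperature. Step 2, add rhodamine-CoA (5 uM) and BHQ-2-YbbR (12.5 uM). Step 3, read 525/598 nm fluorescence at 0 and 30 min.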
# PINK1 modulator – changes PINK1 expression; PINK1 immunofluorescence, high-content cytometry, 24 h; Potency, µM (top dose mostly 76.6 µM), for the others: top-dose activation (PINK1 increase), usual class: activators; actives 0.2% (n = 410,000); AID 624263; active = well fitted activation curve with a large enough effect; inconclusive = small, poorly fitted or top-dose-only effect; inactive = flat fitted curve, though single readings scatter; cell line not stated here;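 also: potency is read from the fitted curve at half-maximal effect; % of control where 0% means no effect; nearly all actives have a fitted effect of over 65% in size; a mitochondrial uncoupler was the plate control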
#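 Cells are seeded, rested 12 hours, then given compound at five concentrations or DMSO for 24 hours. After fixation, blocking and antibody staining, PINK1 amount and mitochondrial localization are scored; CCCP serves as control.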
# CtBP-E1A blk – inhibitors of CtBP/E1A interaction. AlphaScreen GST-E1A/His-CtBP binding, 1536-well; hits give low values; control for the full effect not named in the record. activity change, % (concentration not given with the values). actives 0.49% (n = 340,000); in the data active means activity change below about -65%; inconclusive means about -30% to -65%; inactive means above about -30%; also: % is scaled to controls: 0 for no effect and ±100 for the full control effect
#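 Homogeneous bead-based format: GST-tagged E1A captured on glutathione donor beads, His-tagged CtBP on nickel acceptor beads; compounds precede bead addition by 2 h at 37 °C.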
# D2 agonist – activates the human D2 dopamine receptor; DiscoveRx PathHunter D2 beta-arrestin, luminescence, 90 min; 100% = 57 uM dopamine signal; activation, % (no concentration beside the values); actives 0.084% (n = 360,000); in the data active = activation above about 40%; inconclusive = about 15% to 40%; inactive = below about 15%; also: compound concentration not given in the record; the text of the record calls up to 30% inactive
#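 DiscoveRx PathHunter D2 beta-arrestin cells (2,100/well) attached overnight, then compound-stimulated 90 min at 37 C in HBSS/10 mM HEPES/0.1% Tween-20 buffer; beta-galactosidase complementation read by luminescence after 1 h at ambient temperature. Dopamine 57 uM final (EC100) as control.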
# Six1-Eya2 inh – inhibitors of human Six1/Eya2 interaction | Q15475+O00167 | AlphaScreen GST-Six1/His-Eya2 binding, biochemical; hits give low values; control for the full effect not named in the record | activity change, % (no concentration beside the values) | actives 0.56% (n = 360,000); in the data active = activity change below about -65%; inconclusive = about -30% to -65%; inactive = above about -30%; also: % is scaled to controls: 0 for no effect and ±100 for the full control effect; compound concentration not given in the record
#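 Homogeneous AlphaScreen proximity assay pairing GST-Six1 with His-tagged Eya2 (added as 5X mix: 250 nM and 500 nM) in 50 mM Tris pH 8.0, 300 mM NaCl, 1 mM TCEP. Glutathione donor and nickel acceptor beads; 1 h, 37 °C, dark.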
# TRPV1 potentiator – potentiators of human vanilloid receptor 1 (TRPV1) | TRPV1-expressing cells, Fluo-8 calcium influx, capsaicin EC20 potentiation; host cell line not named in the record; control for the full effect not named in the record | actives 0.02% (n = 320,000) | Q8NER1 | potentiation, % at 8.33 µM | AID 540277; active means potentiation above 80%; inconclusive means 30% to 80%; inactive means below 30%; also: 0% is about no effect
#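 TRPV1-expressing cells were cultured overnight at 35.5C and loaded with Fluo-8 calcium dye for 40 to 90 min at room temperature. After a 10 s baseline, compound was added and calcium influx was read kinetically for 3 min (ex 480/em 520 nm).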
# Numbers without * were called inactive; ? = inconclusive; . = no result given; & = joins results of further samples; [ ] = another dose, or the depositor's remark.
# Every second line gives: D2 PAM	Sfp inh	PINK1 modulator	CtBP-E1A blk	D2 agonist	Six1-Eya2 inh	TRPV1 potentiator
CCC1CCCCN1C(=O)CCNS(=O)(=O)c1ccc2c(c1)oc(=O)n2C (centres undefined)
  -10	2%	0.0%	-5	-4.0	1	-2
CCCc1cc(=O)[nH]c(SCC(=O)NC(=O)OCC)n1
  -21	-4%	11%[38.3 µM]	-6	-0.2	2	-32
O=C(O)c1ccccc1/C=N/n1c(C2CCCCC2)n[nH]c1=S
  -7	-12%	-0.3%	10	-0.4	1	1
S=C(NCc1ccco1)Nc1ccc(Oc2ccccc2)cc1
  -11	20µM*	-0.8%	.	4.2	-12	-19
CC1(c2ccccc2)NC(=O)N(CC(=O)N2CCN(S(=O)(=O)c3cccs3)CC2)C1=O (centres undefined)
  12	.	0.0%	0	-4.4	-3	4
Cc1cc(C)n(-c2ccc(C(=O)Nc3cccnc3Cl)cc2)n1
  -9	7%	4.2%	.	2.0	2	-6
Nc1nc(Cl)cc(-c2ccccc2)n1
  -9	9%	0.7%	21	-1.7	2	4
Cc1cc2c(Nc3ccc(C(=O)O)cc3)ncnc2s1
  -5	4%	-1.0%	-18	1.7	7	3
CCCCC(Sc1nc(C)c(Cc2ccccc2)c(=O)[nH]1)C(=O)O (centres undefined)
  14	3%	0.9%	.	2.7	0	21
N#Cc1ccc(-c2ccc(OCC(=O)NCCCN3CCCC3=O)cc2)cc1
  1	-6%	-0.5%	-1	1.2	-1	-9
CSc1nc2c(C)c(C)c(C)c(C)c2[nH]1
  -28	-4%	-1.3%	-17	0.8	18	1
COc1ccc(C(=O)N2CCCCCC2)cc1OC1CCN(C(C)=O)CC1
  2	11%	-2.8%	16	-4.5	2	10
C[C@@H]1CN([C@H](C)CO)S(=O)(=O)c2ccc(Br)cc2O[C@H]1CN(C)C(=O)C1CC1
  2	.	0.4%	-4	-6.5	1	.
COc1cc2c(C(=O)NCc3ccc(C)o3)cn(CC(C)C)c(=O)c2cc1OC
  3	45µM*	3.0%	-9	-1.4	-1	-15
COc1ccccc1/C=C/C(=O)OCC(=O)NC1CCCCCC1
  6	.	1.5%	11	-1.7	-11	-11
O=C(Nc1ccc2nsnc2c1)N1CCCCCC1
  -10	1%	-0.6%	-4	-2.5	-3	-14
C/C(=N\NC(=O)c1c(C)nc2ccccn12)c1cccc([N+](=O)[O-])c1
  2	14%	-0.1%	8	-4.1	1	-7
O=C(CSc1ccc2ccccc2n1)N1CCC(c2noc3ccc(F)cc23)CC1
  -12	7%	4.2%[38.3 µM]	-1	-3.0	-6	-9
CCC(=O)NCc1cc(-c2nn(C)c(=O)c3ccccc23)ccc1OC
  -10	12%	-0.4%&0.7%	-8	-1.5	1	-5
COc1ccc(/C=N/OC/C(O)=C(\C#N)c2nc3ccccc3[nH]2)cc1
  0	-3%	?	-4	0.6	2	-15
Cn1c(=O)c2c(nc(Br)n2Cc2nnc(N)s2)n(C)c1=O
  3	3%	6.2%	-1	0.8	-8	3
CCn1c2ccccc2c2cc(NC(=O)c3cc(OC)cc(OC)c3)ccc21
  2	30%	11%	11	-2.2	-8	12
Cc1ccc2nc(SCC(=O)Nc3ccc4sc(C)nc4c3)c(C#N)cc2c1
  -8	-3%	?	3	-0.5	15	7
COc1ccc(C2SCC(=O)N2CCc2ccc(OC)c(OC)c2)cc1 (centres undefined)
  -5	-6%	5.5%	1	-0.9	3	-3
Cn1c(-c2csc(-c3cccc(C(F)(F)F)c3)n2)n[nH]c1=S
  -28	14%	-0.1%	-1	0.7	1	1
CCc1c(C)nc2ncnn2c1NCc1cccs1
  14	12%	.	3	3.0	1	-10
COc1cccc(Nc2nc(NCC3CCCO3)c3ccccc3n2)c1 (centres undefined)
  -29	25µM*	0.5%	2	-2.1	2	1
COc1ccc(N2CCN(C(=O)CN(Cc3ccc(Cl)cc3)S(C)(=O)=O)CC2)cc1
  10	5%	0.9%[38.3 µM]	-8	3.1	-15	8
Cc1c(NS(=O)(=O)c2cc(Br)cc3c2N(C(=O)C2CC2)CC3)c(=O)n(-c2ccccc2)n1C
  -3	0%	2.7%	1	-3.9	14	0
CC1=C(C(=O)N(C)C)CC(CC(=O)NCc2cccs2)C(=O)N1CCCN1CCCC1=O (centres undefined)
  .	.	-0.4%	6	-0.9	-4	.
CC1=CC(c2ccccc2)n2nc(N3C(=O)c4ccccc4C3=O)nc2N1 (centres undefined)
  -12	-8%	1.4%[38.3 µM]	-5	-3.0	-16	1
COc1ccc(SCCN2CC[C@@H](NC(=O)OCc3ccccc3)CCC2=O)cc1
  -11	.	-0.1%	1	-4.1	1	-10
CCOC(=O)c1sc(=S)n(C)c1NC(=O)c1ccccc1Cl
  -4	18µM*	-1.8%	-23	-2.0	-29	12
COCCOc1cc(-n2cccc2)c(Cl)cc1Cl
  -5	12%	-0.6%	4	1.9	3	-11
COC(=O)c1sc(C(=O)OC)c(C(=O)OC)c1C(=O)OC
  -6	26%	-0.9%	9	1.5	-1	-2
COc1cc2c(cc1OC)CN(C(C)C(=O)Nc1ccc(NC(C)=O)cc1)CC2 (centres undefined)
  -8	18%	-2.2%	-9	0.1	-1	-2
Nc1nnc(SCC(=O)OCc2ccccc2)s1
  1	-10%	1.1%	0	-5.1	0	-15
O=C1CS/C(=N/N=C/c2ccncc2)N1
  1	-9%	-1.1%	4	-2.4	3	2
O=c1c2ccccc2cnn1CCOc1cccc(Br)c1
  -3	-5%	4.3%	-5	-2.5	17	-16
CC(NC(=O)c1ccc(S(=O)(=O)Nc2ccccc2Cl)cc1)c1ccncc1 (centres undefined)
  -1	.	-1.5%	-2	-1.0	1	.
CC(C)N1CCN(Cc2ccc(Sc3nncn3C)o2)CC1CCO (centres undefined)
  -18	21%	-0.4%	.	-3.9	-2	10
O=C1NC2(CCCC2)N=C1c1ccc(Cl)cc1
  -7	10%	-1.6%[38.3 µM]	-3	-1.6	0	-6
Cc1ccc(S(=O)(=O)N2CCC(=O)N([C@H](COCc3ccccc3)C(C)C)CC2)cc1
  .	.	-0.5%	4	.	1	.
O=C(OCc1cn([C@@H]2C[C@H](c3ccccc3)N(C(=O)C3CCCCC3)C[C@H]2O)nn1)c1ccccc1
  -4	.	1.3%	-4	-10	2	.
COc1ccc(CNC(=O)C2CCN(S(=O)(=O)c3cccnc3)CC2)cc1
  -5	6%	0.8%	.	-1.5	0	2
NS(=O)(=O)c1ccc(CCNC(=O)CCCn2ncn3c(cc4occc43)c2=O)cc1
  -8	6%	0.7%	4	-2.1	-1	3
CC(C)NC(=O)c1cc(-c2ccc(F)cc2OC(C)C)n[nH]1
  -6	.	0.8%	6	-1.9	6	.
O=C(COc1ccc2ccccc2c1Br)NNC(=O)Nc1ccccc1
  -9	13%	9.6%[38.3 µM]	13	-0.6	2	17
CCOC(=O)COc1ccc(C(=O)NC2CCCCC2)cc1
  11	15%	7.0%[38.3 µM]	10	0.4	1	21
CC(C(=O)Nc1ccc2c(c1)OCO2)N1CCN(C)CC1 (centres undefined)
  -2	?	0.3%	4	-2.4	4	.
COc1cc2c(cc1OC)C(c1ccccc1)N(C(=O)C(C)(C)C)CC2 (centres undefined)
  -10	4%	-2.6%	-11	2.8	-10	-14
Cc1ccc(C2CC(=O)Nc3cc4c(cc32)OCO4)o1 (centres undefined)
  -5	12%	1.4%[38.3 µM]	-3	-1.4	-11	-5
NC(=O)c1ccc(Cc2ncc(C(F)(F)F)cc2Cl)s1
  -16	-5%	3.2%	7	-4.3	-15	?
Cc1ccc2c(c1)nnn2C1CCN(C(=O)c2cccs2)CC1
  -12	-4%	-1.7%	-13	-2.3	-11	-4
COC(=O)c1cc(S(=O)(=O)N2CCN(c3ccc(C(C)=O)cc3)CC2)cn1C
  -7	4%	4.6%	.	9.0	-2	6
O=c1oc2ccccc2cc1-c1nc2ccccc2o1
  2	11%	0.3%[38.3 µM]	3	-2.0	4	-2
CCN(CC)C(=O)CCn1nc(-c2ccc(C)cc2)c2ccccc2c1=O
  -10	1%	1.1%	-11	-1.1	-2	-25
COCCOC(=O)c1c(C)oc2ccc(NS(=O)(=O)c3ccc(C)cc3)cc12
  -13	-1%	2.0%	.	-4.9	-5	-10
Cc1sc2ncnc(N(C)Cc3ccco3)c2c1C
  -8	1%	-2.0%	-3	0.7	-5	16
COC(=O)c1ccc(NC(=O)Cn2nc(SC)n(N)c2=S)cc1
  1	1%	-1.8%	0	4.3	7	-26

# (listing goes on)
# Every second line gives: D2 PAM	Sfp inh	PINK1 modulator	CtBP-E1A blk	D2 agonist	Six1-Eya2 inh	TRPV1 potentiator
CCOC(=O)C(Cc1ccccc1)C(=O)Nc1ccc(NC(=O)C(Cc2ccccc2)C(=O)OCC)cc1 (centres undefined)
  5	-5%	-0.1%	5	0.2	-5	-17
C=CCNc1nc(C(=O)OCC(=O)N(Cc2ccccc2)C(C)C)cs1
  0	.	0.7%	-4	-1.6	4	13
C=CCn1cnc2c(c1=O)c1nc3ccccc3nc1n2/N=C/c1cc(OC)c(OC)c(OC)c1
  0	16%	10%	?	-3.2	-27	1
COc1ccccc1-n1c(SCC(=O)NCC2CCCO2)nc2c([nH]c3ccccc32)c1=O (centres undefined)
  -24	24%	1.1%	-1	-9.3	4	3
O=C(O)c1ccc(N2CCN(Cc3ccc4c(c3)OCO4)CC2)c([N+](=O)[O-])c1
  -8	6%	1.1%	6	2.8	-6	-7
Cc1ccccc1CN1CCN(Cc2cc(=O)c3ccccc3[nH]2)CC1CCO (centres undefined)
  -29	7%	2.5%	-4	-4.5	-9	1
CCOc1ccc(OCC(=O)OCC(=O)Nc2ccccc2C#N)cc1
  1	.	-0.2%	5	-3.2	-3	-9
C=CCN(CC=C)Cc1cc(=O)oc2cc(C)cc(C)c12
  0	.	1.5%	24	-3.7	21	.
C=CCc1cccc(CNc2nc3ccccc3n2CC)c1O
  -33	-16%	3.1%	-2	-0.5	2	-18
Cc1ccnc(N/C=C(/NC(=O)c2ccccc2)C(=O)NN)n1
  3	-23%	-1.9%	-11	1.6	11	-2
CN(C(=O)COC(=O)c1cncc(Br)c1)C1CCCCC1
  -20	.	-1.3%	-21	-2.0	25	.
